# Rce1 inh: inhibitors of yeast Ras-converting enzyme | actives 0.27% (n = 290,000) | yeast membranes, quenched prenylated peptide cleavage fluorescence | calls only;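 active = fall in fluorescence gain of 50% or more versus controls, with final raw signal at or below 3038400; inconclusive = same 50% fall but final raw signal above 3038400; inactive = fall in fluorescence gain under 50%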;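 also: plate controls were neutral control wells for no effect and wells lacking membranes for full effect; tested at 10 µM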
# MT1-MMP act inh: blocks activation of human MT1-MMP | P50281 | HT1080 RFP-PRO-GFP cells, GFP/RFP ratio fluorescence, overnight; percent of plate control window, DMSO zero | GFP/RFP ratio change, % at 20 µM | actives 0.061% (n = 360,000);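 active = GFP/RFP ratio change of at least 30% with cell ATP level not reduced by more than half and red fluorescence within 50% of control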; also: strong numbers were not always called active
#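 Assay system: RFP-PRO-GFP reporter HT1080 cells; read-out basis: GFP/RFP fluorescence ratio; benchmarks: DMSO wells and RFP-L50D-GFP cells; doses: 20 µM single dose, 1% DMSO; schedule: overnight cell settling, then overnight compound exposure, 37 °C, 5% CO2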
# Env fusion inh: blocks HIV Env-driven cell-cell fusion. AID 651610. inhibition, % at 12.3 µM. HeLa-JRFL Env/CEM21 cell fusion, luciferase. actives 1.1% (n = 360,000);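 active = mean replicate inhibition score of at least 50 and every replicate individually at or above 50; inconclusive = only one of the two criteria met; inactive = mean below 50 and not all replicates reaching 50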;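 also: 0% = plate neutral controls and 100% = maraviroc near 300 nM; one replicate is shown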
# CSC inhib: blocks cancer stem cells; cancer stem cell-like cells viability, luminescence; inhibition, % at 7.5 µM; actives 1.1% (n = 300,000);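 active = mean at 75% or more and at least half the replicates too; inconclusive = mean and replicates disagree; tested in HMLE shEcad cells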;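 also: 0% = median of negative and 100% = median of positive control wells; the first replicate is given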
# PABP FP inh: blocks human PABP binding to poly(A) RNA; actives 1% (n = 290,000); inhibition, % at 35 µM; fluorescence polarization;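 active = 50% or more with normal probe brightness, or confirmed in later tests; inconclusive = above 50% with abnormal brightness, or retests that disagree; inactive = below 50% or failed in later tests; about a fifth of its hits are not listed in these tables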;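 also: calls also rest on retests at 20 µM and on dose response follow-up; controls were probe without protein and protein plus probe with vehicle; some compounds called inactive have numbers as strong as hits; many hits fall short of the cut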
# Target sequence (P11940 whole entry, looked up): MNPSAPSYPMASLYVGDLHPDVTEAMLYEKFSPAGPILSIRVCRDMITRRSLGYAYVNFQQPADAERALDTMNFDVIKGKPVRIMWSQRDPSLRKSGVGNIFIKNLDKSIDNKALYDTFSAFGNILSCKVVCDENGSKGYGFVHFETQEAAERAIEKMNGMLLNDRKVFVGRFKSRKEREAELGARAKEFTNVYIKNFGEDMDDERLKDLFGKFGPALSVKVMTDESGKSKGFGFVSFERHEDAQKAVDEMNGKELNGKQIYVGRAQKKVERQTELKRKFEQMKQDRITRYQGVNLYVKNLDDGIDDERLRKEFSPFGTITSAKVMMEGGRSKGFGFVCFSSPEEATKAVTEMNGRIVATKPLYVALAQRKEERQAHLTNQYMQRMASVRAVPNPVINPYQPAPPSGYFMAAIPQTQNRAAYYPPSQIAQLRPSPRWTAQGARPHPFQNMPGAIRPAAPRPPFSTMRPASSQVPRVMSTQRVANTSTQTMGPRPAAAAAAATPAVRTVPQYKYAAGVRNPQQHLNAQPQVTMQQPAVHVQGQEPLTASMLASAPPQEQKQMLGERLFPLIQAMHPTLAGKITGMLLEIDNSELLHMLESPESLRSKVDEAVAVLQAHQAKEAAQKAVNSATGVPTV
# Yeast UUG start: alters start codon recognition fidelity in yeast | S. cerevisiae UUG-firefly luciferase reporter, luminescence/redox ratio | activity score, % at 18.7 µM | actives 0.13% (n = 350,000);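 active = replicate mean at a twofold rise or more, about +100% in these data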;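 also: firefly luciferase made from a UUG start codon reports start codon fidelity; reporter light over untreated wells divided by growth signal over untreated wells; some hits fall short of that in this replicate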
# eIF4H FP inh: inhibitors of RNA binding by human eIF4H | eIF4H fluorescence polarization binding assay | inhibition, % at 35 µM | actives 0.94% (n = 290,000) | AID 2012;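 active = 50% or more with normal probe brightness, or confirmed in later tests; inconclusive = above 50% with abnormal brightness, or retests that disagree; inactive = below 50% or failed in later tests; about a fifth of its hits are not listed in these tables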;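 also: calls also rest on retests at 20 µM and on dose response follow-up; 0% = protein and probe with vehicle and 100% = probe without protein; strong numbers were not always called active; many hits fall short of the cut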
# eIF4H FP inh retest: further read-out of eIF4H FP inh, marked with its call; inhibition, %; compound at 20 µM; confirmation average;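 mean of two retest wells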
# PABP FP inh retest: second read-out of PABP FP inh, no call of its own (marks repeat the call); inhibition, %; compound at 20 µM; confirmation repeats;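 mean of two retest wells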
# MT1-MMP act inh RFP: recorded beside MT1-MMP act inh, whose call it bears; RFP signal change, %; measured here: RFP expression control read;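 0 = vehicle wells; hits needed this value within 50% of zero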
# * = called active by the depositor; i = inactive; u = inconclusive; x = no result given.
SMILES,Rce1 inh,MT1-MMP act inh,MT1-MMP act inh RFP,Env fusion inh,CSC inhib,PABP FP inh,Yeast UUG start,eIF4H FP inh,others
CCN(CC)CCn1c2ccc(F)cc2c2nc(C)sc21,i,-1.8,-1.7,9.3,0.5,5.1,-12.8,-2.9,
CCC(c1ccccc1)C(CC)c1cc(O)c(O)c(O)c1 (stereo unspecified),x,-1.3,3.2,21.0,x,x,-18.6,x,
O=C(COC(=O)c1ccccc1F)Nc1cc(S(=O)(=O)N2CCOCC2)ccc1N1CCCC1,i,1.2,2.2,-2.6,-9.4,-15.9,x,-6.0,
O=[N+]([O-])c1ccccc1S(=O)(=O)N1CCN(Cc2cc3c(cc2O)OCO3)CC1,i,-4.0,-2.3,1.2,7.5,-9.9,-4.7,1.6,
COc1ccccc1C(=O)Nc1nnc(-c2ccc(Cl)cc2)o1,i,1.3,0.9,-15.7,-2.6,12.9,-7.4,-4.9,
NC(=O)c1ccc(NC(=O)COc2ccc([N+](=O)[O-])cc2Cl)cc1,i,2.1,1.3,8.2,-9.4,0.2,x,-2.0,
O=C(Nc1ccccc1)C1CCN(S(=O)(=O)c2ccc3c(c2)OCCO3)CC1,i,7.3,-0.1,9.0,x,x,x,x,
Cc1ccc(CNC(=O)Cn2cccc2)cc1,i,0.1,3.3,12.8,-2.4,0.7,-5.9,-10.8,
COc1ccc(-c2nnn(CC(=O)NC(=O)NC3CCCCC3)n2)cc1OC,x,8.5,-2.3,2.9,-8.1,x,-5.7,x,
Cc1ccccc1CSc1nnc(-c2ccccn2)n1C,i,0.1,4.5,-3.1,-9.7,5.2,-1.9,0.8,

# Compounds above with fluorine (2):
SMILES,Rce1 inh,MT1-MMP act inh,MT1-MMP act inh RFP,Env fusion inh,CSC inhib,PABP FP inh,Yeast UUG start,eIF4H FP inh,others
CCN(CC)CCn1c2ccc(F)cc2c2nc(C)sc21,i,-1.8,-1.7,9.3,0.5,5.1,-12.8,-2.9,
O=C(COC(=O)c1ccccc1F)Nc1cc(S(=O)(=O)N2CCOCC2)ccc1N1CCCC1,i,1.2,2.2,-2.6,-9.4,-15.9,x,-6.0,

# Next records follow.
SMILES,Rce1 inh,MT1-MMP act inh,MT1-MMP act inh RFP,Env fusion inh,CSC inhib,PABP FP inh,Yeast UUG start,eIF4H FP inh,others
O=C(COC(=O)C1(c2ccc(F)cc2)CCCC1)N1CCN(C(=O)c2ccco2)CC1,i,2.1,0.4,x,-5.9,-3.4,x,-2.9,
O=C(N/N=C/c1ccc([N+](=O)[O-])o1)c1cccc(S(=O)(=O)N2CCOCC2)c1,i,1.8,4.8,-3.6,-1.1,-5.0,x,52.0*,eIF4H FP inh retest=78.6*;PABP FP inh retest=12.9
COCCNC(=O)CSc1nc2ccccc2c(=O)n1CC1CCCO1 (stereo unspecified),i,-2.0,3.4,25.2,-11.4,-2.1,6.9,0.8,
Cc1cccc(NC(=O)C2CC(=O)NC(Nc3nc4ccccc4s3)=N2)c1 (stereo unspecified),i,x,x,10.5,-4.4,0.9,x,4.3,
O=C(NCc1ccccc1)c1ccc(-c2ccc(F)cc2)o1,i,5.1,-1.1,-16.0,9.8,2.0,x,-7.5,
Cc1ccn2c(=O)c(C(=O)NCCN3CCOCC3)c(O)nc2c1,i,-0.8,2.9,-9.7,1.2,1.9,-4.2,2.1,
O=c1[nH][nH]c(=O)c2cc(N3CCCC3)ccc12,i,3.8,3.3,x,-14.8,8.6,-11.6,-0.8,
c1ccc(CCCNCC2COc3ccccc3O2)cc1 (stereo unspecified),i,2.6,3.3,-9.0,-0.8,0.2,x,1.5,
CCCCNC(=S)Nc1ccc2[nH]c(=O)[nH]c2c1,i,5.1,2.7,-21.7,-27.2,-11.2,-20.9,-4.7,
COc1ccc(NC(=O)N2CCn3c2nc2ccccc23)cc1,i,1.3,6.4,-8.6,0.6,-1.7,-13.7,-3.0,
C=CCOC(=O)C(C#N)c1nc2ccccc2nc1N1CCC(C(=O)OCC)CC1 (stereo unspecified),i,-38.2,-8.3,-0.1,-8.0,17.1,-14.5,17.2,
O=C(c1cn(-c2ccccc2)nc1-c1ccccc1)N1CCN(c2ccccn2)CC1,i,-2.2,-5.3,-18.6,33.7,5.0,-10.8,0.6,
COc1cc(C#Cc2c(-c3cncn3C)n(C)c3ccc(-c4ccc5cc[nH]c5c4)cc23)cc(OC)c1,x,-4.2,-5.7,3.5,11.4,x,-23.0,x,
CCN(CC(=O)Nc1ccc(C(=O)OC)cc1)Cc1ccccc1,i,-7.1,1.9,4.2,-4.9,3.6,-3.0,5.9,
CC1CN(C(=O)c2cc([N+](=O)[O-])cc([N+](=O)[O-])c2)CC(C)O1 (stereo unspecified),i,0.2,1.7,2.1,-4.8,2.3,12.4,-7.2,
O=C1NC[C@H](c2ccccc2)N(CCc2cccc3ccccc23)C1=O,i,-0.1,-0.1,19.9,-6.5,8.0,40.5,-5.0,
COC(=O)c1ccc(NC(=O)CN(c2ccc(C)cc2)S(=O)(=O)c2c(C)n[nH]c2C)cc1,i,6.7,-1.9,-28.5,-4.1,-2.6,2.8,-9.4,
CCCCCCn1nc(C(=O)N(CC(C)C)c2c(N)n(CCCC)c(=O)[nH]c2=O)c2ccccc2c1=O,i,1.4,-0.5,-29.9,6.9,8.4,-3.5,12.1,
Cn1c(=O)[nH]c(=O)c2c1nc(N1CCCC1)n2CC(O)COc1ccccc1 (stereo unspecified),i,1.8,9.1,-1.6,-1.1,-4.9,-15.0,2.3,
O=C(Cn1cnc2cc([N+](=O)[O-])ccc2c1=O)NCCc1ccc(F)cc1,i,3.6,3.9,14.8,5.3,1.9,-14.3,2.1,
O=C(O)c1ccccc1SCc1cn2ccccc2n1,i,-0.2,1.4,-1.3,-12.3,0.7,x,0.2,
CCOC(=O)c1cc(S(=O)(=O)N(C)Cc2ccccc2)cn1C,i,-3.2,-1.4,7.4,-4.0,x,2.8,x,
COc1cc2nc(N(C)CCCNC(=O)C3CCCO3)nc(N)c2cc1OC (stereo unspecified),i,x,x,x,10.0,4.9,x,-5.3,
CCCc1cc(=O)[nH]c2nnc(SCC(=O)Nc3ccc(NC(C)=O)cc3)n12,i,2.1,1.6,-2.3,-1.4,x,0.2,x,
Cc1nc2ccc(S(=O)(=O)NCC(=O)N(C)Cc3ccccc3)cc2s1,i,3.4,0.3,10.1,5.1,4.5,x,7.1,
COc1ccccc1NC1=C(N2CCCCC2)C(=O)c2ccccc2C1=O,i,-15.6,-14.1,x,144.5*,-10.9,x,6.2,
CC(C)C[C@@H](CO)N1CCN(Cc2ccccc2)CCC1=O,i,2.3,5.2,-12.9,-6.2,2.8,-12.9,-7.8,
CCOc1ccccc1NC(=S)N1CCCc2ccccc21,i,0.1,2.5,-26.3,-15.9,-1.7,-35.0,0.7,
Cc1c(NC(=O)C(C)OC(=O)COc2ccc(C#N)cc2)c(=O)n(-c2ccccc2)n1C (stereo unspecified),i,-2.7,2.6,15.8,27.4,x,x,x,
Cc1nc2c3ccccc3nc(NNC(=O)CCC(=O)NC(C)C)n2n1,i,3.9,11.7,-16.8,-3.6,7.4,x,-0.2,
O=C(COC(=O)c1ccc(O)cc1)Nc1nccs1,i,1.9,8.2,-6.8,-7.8,8.0,-5.8,-2.8,
COc1cc(C)ccc1OCc1cc(C(=O)N2CCCCCCC2)no1,i,-0.3,2.8,-38.8,-5.2,-0.6,-1.7,5.3,
Cc1cc(N)cc(C)c1-c1c(Br)cc(N)cc1Br,x,-5.5,-13.7,10.4,x,x,-14.7,x,
Cc1nnc(NC(=O)c2ccc3c(c2)C(=O)N(CCC(C)C)C3=O)s1,i,3.2,-3.7,10.7,-12.8,-0.6,-9.3,-5.6,
Cc1cc(C)cc(NC(=S)NCc2cccnc2)c1,i,4.6,2.4,1.2,5.8,6.8,x,4.8,
CC(O)(c1cccc(F)c1)c1nc(-c2ccc(S(C)(=O)=O)cc2)cs1 (stereo unspecified),x,-7.1,-13.0,-7.0,x,x,-13.1,x,
CCCCOc1ncnc2c1[nH]c1ccc(F)cc12,x,-4.7,-27.0,x,u,-8.9,9.8,15.1,
COc1ccc2nc3oc(C(=O)N4CCN(c5ccccc5F)CC4)cc3cc2c1,i,15.5,-0.7,11.4,1.7,-12.9,-5.3,-22.3,
Cc1ccc(C(=O)Nc2cc(Cl)ccc2OC(=O)c2ccc(C)cc2)cc1,i,x,x,-59.3,32.8,7.7,x,-5.3,
CC1Cc2cc(-c3csc(NC(=O)Cc4ccccc4)n3)ccc2N1S(C)(=O)=O (stereo unspecified),i,-16.3,-25.4,x,38.1,9.7,-6.5,2.0,
COc1ccc(CC(NC(C)=O)C(=O)NC2CCN(C(=O)C3CCCCC3)CC2)cc1OC (stereo unspecified),i,2.2,4.0,-4.2,-2.4,3.6,-10.0,4.0,
CCNC(=O)CC1SC(=Nc2ccc(Cl)cc2)N(CC)C1=O (stereo unspecified),i,1.1,-1.8,-1.3,-36.8,3.9,x,4.2,
CC(=O)Nc1ccc(C(=O)COC(=O)C2CC2)c(F)c1,x,1.0,2.6,-6.6,x,x,-41.0,x,
Cc1ccc(Nc2nc(COC(=O)COc3ccc(C=O)cc3)cs2)cc1,i,-4.5,8.3,-46.5,-4.6,-2.5,-14.2,-16.2,
CCC(C)N(NC(C)=O)c1nc(Cl)nc(NC(C)C)n1 (stereo unspecified),i,0.1,6.0,x,-4.2,-1.7,2.8,-0.7,
Cc1cccc(NC(=O)C2C3CCC4C(CCC32)C4(Cl)Cl)c1 (stereo unspecified),i,6.5,-1.3,-1.3,-21.1,7.9,-5.4,3.8,
Cc1c(C(=O)O)c(=S)sn1CCOc1ccccc1,i,4.5,-5.9,x,x,3.0,-23.3,5.3,
Cn1nnnc1SCCNC(=O)C1CCC(=O)N(Cc2ccccc2F)C1 (stereo unspecified),i,0.5,3.7,-14.4,-1.6,-1.2,1.9,-10.0,
CCN1C(=NCCOC)N[C@@H](c2ccccc2)[C@H](C(=O)OC)[C@H]1C,x,5.5,8.6,9.8,-15.6,x,-4.0,x,
CCn1cc(C(=O)N[C@H](C(=O)O)C(C)C)c(=O)c2cc3c(cc21)OCO3,i,-1.9,0.2,13.1,-11.5,-6.1,-1.8,-0.8,
# Remaining list, next part.
SMILES,Rce1 inh,MT1-MMP act inh,MT1-MMP act inh RFP,Env fusion inh,CSC inhib,PABP FP inh,Yeast UUG start,eIF4H FP inh,others
CCOC(=O)c1ccc(NC(=O)Cn2cccc2)cc1,i,6.5,0.9,x,x,5.1,x,0.0,
Cc1ccc(C(=O)NNC(=O)CSc2nnc(-c3ccncc3)n2-c2ccc(C)cc2)cc1,i,21.9,-0.2,-34.6,3.1,3.0,-13.9,2.2,
CCN(C(=O)CSc1nnc(Nc2ccc(OC)cc2)s1)C1CCS(=O)(=O)C1 (stereo unspecified),x,-1.4,-2.0,-4.5,9.9,x,x,x,
CSc1ccc(/C=C2\C(=N)N3N=C(CC(=O)N4CCOCC4)SC3=NC2=O)cc1,i,0.8,5.1,-4.3,-16.7,4.6,-7.9,-6.2,
CN=C(NC)SC1CC(=O)N(c2ccccc2)C1=O (stereo unspecified),i,2.8,3.6,x,-13.5,-2.1,-4.4,2.5,
O=C(Cc1ccc(Cl)c(Cl)c1)Nc1ccc2[nH]c(=O)[nH]c2c1,i,1.5,0.1,-10.9,-9.1,-2.5,x,-4.4,

# Bioassay records from PubChem BioAssay.
